Source: PubChem (Broad Institute)
A1 inhib: inducers of caspase activity in MEF A1-2A-BIM cells, primary screen, A1 inhibitor project, cell-based, CaspaseGlo luminescence. AID 2241, 2010. 21,000 tested, 0.51% active. caspase-Glo luminescence, 3 h; percent of clofoctol signal, DMSO as zero. caspase activation, % (no concentration beside the values);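 active = most replicate scores above 10, or exactly half above 10 with mean activity above 10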;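 note: effector caspase 3 and 7 activity cleaving a DEVD luciferin substrate; 50 nL library stock added to about 30 µL; numbers are from one replicate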
BJeLR viab HTS: BJeLR cell viability loss, primary screen, luminescence, CellTiterGlo ATP; BJeLR fibroblasts viability, 48 h; HRASV12, hTERT and SV40 LT/ST transformed; viability loss activity score, % (test concentration not listed); 30,000 tested, 0.64% active; AID 2275, 2010; in the data active = viability loss activity score above about 50%; about a fifth of its hits are not listed in these tables;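 note: higher score means fewer live cells and less ATP luminescence; stock transfer was 50 or 100 nL into about 30 µL; 0% = vehicle wells and 100% = a reference killing control; one replicate is shown; the record names a cut of 85%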
Starred values were filed as active, the others as inactive; · = not tested or not shown. Not all compounds are listed; the hit share may differ from the screen's.

SMILES	A1 inhib	BJeLR viab HTS
COc1ccc(NC(=O)N(C)C[C@@H]2Oc3ccc(NC(=O)Nc4c(C)noc4C)cc3C(=O)N([C@@H](C)CO)C[C@H]2C)cc1	0.3	-2.5
Nc1cccc(-c2cc3c(Oc4cccc(O)c4)ncnc3[nH]2)c1	22.9*	20.6
C[C@H]1CN([C@@H](C)CO)C(=O)c2cc(NC(=O)Nc3cccc4ccccc34)ccc2O[C@@H]1CN(C)Cc1ccc(C(F)(F)F)cc1	0.7	-0.7
O=C(O)CCC/C=C\C[C@@H]1[C@@H](/C=C/[C@@H](O)COc2cccc(C(F)(F)F)c2)[C@H](O)C[C@@H]1O	0.3	-3.6
C[C@H](CO)N1C[C@H](C)[C@H](CN(C)C(=O)Nc2ccc3c(c2)OCO3)Oc2c(NC(=O)Nc3ccccc3)cccc2C1=O	·	-5.6
NC(=O)C1CCN(C(=O)c2cnn(-c3ccccc3)c2-n2cccc2)CC1	0.2	1.7
COc1ccc(NC(=S)NCC(c2ccccc2)c2c[nH]c3ccccc23)cc1 (centres undefined)	0.8	6.1
N=c1sc2ccccc2n1C(=O)OCc1ccccc1	0.2	1.5
COc1ccc(NC(=O)Nc2ccc3c(c2)C(=O)N([C@@H](C)CO)C[C@@H](C)[C@@H](CN(C)S(=O)(=O)c2ccccc2)O3)cc1	0.2	-0.3
Cc1noc(C)c1NC(=O)N(C)C[C@@H]1Oc2ccc(NS(C)(=O)=O)cc2C(=O)N([C@H](C)CO)C[C@H]1C	-1.1	-0.2
S=C(NC1CCCCC1)N1CCCCC1	0.1	-3.7
CCCn1cc(SCC(=O)N2CCc3ccccc32)c2ccccc21	-0.1	1.3
Cc1oc2c(c1C(=O)NCCc1ccccc1)C(=O)c1ccccc1C2=O	-0.9	-1.9
O=C(Oc1ccccc1C(=S)N1CCOCC1)c1ccccc1	-0.5	3.1
Cc1cccc(-c2nc(C)c(CCNS(=O)(=O)c3ccc(F)c(C(F)(F)F)c3)s2)c1	-0.4	-2.1
COc1c(O)c(O)cc2ccc3cccc(O)c3c12	0.7	-1.1
C[C@H](CO)N1C[C@H](C)[C@H](CN(C)Cc2ccncc2)Oc2ccc(NC(=O)NC3CCCCC3)cc2C1=O	-0.1	-1.5
C[C@H](CO)N1C[C@H](C)[C@@H](CN(C)S(C)(=O)=O)Oc2ccc(NS(=O)(=O)c3cccs3)cc2C1=O	0.1	0.8
CC(C)CC(NC(=O)C1CCCCC1)C(=O)NCc1ccccn1 (centres undefined)	·	5.2
O=C(CCN1C(=O)c2ccccc2C1=O)Nc1ccc(S(=O)(=O)Nc2nccs2)cc1	-0.1	8.7
C[C@@H]1CN([C@H](C)CO)C(=O)c2cccc(N(C)C)c2O[C@H]1CN(C)Cc1ccc2c(c1)OCO2	·	4.5
C[C@@H]1CN([C@H](C)CO)C(=O)c2cc(NS(=O)(=O)c3ccccc3)ccc2O[C@H]1CN(C)Cc1ccccc1	-0.4	2.3
O=S(=O)(c1cccc2cccnc12)N(CCc1ccccc1)Cc1ccccc1	·	1.6
C[C@@H]1CN([C@H](C)CO)C(=O)c2cccc(NS(=O)(=O)c3ccc(F)cc3)c2O[C@@H]1CN(C)CC1CCCCC1	·	5.0
N#Cc1c(-c2cccs2)cc(-c2ccccc2)nc1OCC(=O)c1ccccc1	-0.3	-1.1
O=C(O)C1CCC(c2ccc(-c3ccccc3)cc2)CC1 (centres undefined)	-1.9	-7.5
C[C@@H]1CN([C@H](C)CO)C(=O)c2cccc(NC(=O)Nc3ccc(F)cc3)c2O[C@@H]1CN(C)Cc1ccc(C(F)(F)F)cc1	·	3.5
CNC[C@H]1Oc2c(NC(=O)c3ccc(-c4nccs4)cc3)cccc2C(=O)N([C@@H](C)CO)C[C@H]1C	·	5.0
C[C@H](CO)N1C[C@H](C)[C@H](CN(C)C)Oc2ccc(NC(=O)Nc3ccccc3)cc2C1=O	0.4	4.6
O=C(CSc1nnc(COc2ccccc2)o1)Nc1ccccc1	-0.4	2.2
CO/C(N)=N/C(=S)Nc1ccccc1	-3.4	2.1
CCOc1ccc(-c2nc(C#N)c(N(C)C)o2)cc1	·	1.4
Cc1cccc(NC(=O)C(CC(C)C)NC(=O)C2CCC(C)CC2)n1 (centres undefined)	·	2.7
C[C@H]1CN([C@@H](C)CO)C(=O)c2cccc(NC(=O)Nc3cccc4ccccc34)c2O[C@@H]1CN(C)C(=O)Nc1cccc2ccccc12	·	-1.6
Cc1noc(C)c1S(=O)(=O)Nc1ccc2c(c1)C(=O)N([C@@H](C)CO)C[C@@H](C)[C@@H](CN(C)C(=O)Nc1cccc3ccccc13)O2	0.2	4.5
COc1ccc(CN(C)C[C@@H]2Oc3c(NC(=O)Nc4ccc(C(F)(F)F)cc4)cccc3C(=O)N([C@@H](C)CO)C[C@@H]2C)cc1	·	1.5
C[C@@H]1CN([C@H](C)CO)C(=O)c2cccc(NC(=O)C3CCOCC3)c2O[C@H]1CN(C)C(=O)Nc1ccc(C(F)(F)F)cc1	·	4.1
Cn1c(=O)c2cnc(-c3ccccc3)nc2n(C)c1=O	0.2	2.0
CCOc1ccc2nc(NC(=O)Nc3ccc(F)cc3)sc2c1	1.2	9.8
COc1cc2c(cc1NC(=O)CCC1CCCCC1)oc1ccccc12	·	-4.9
COc1ccc(C2(O)c3ccccc3NC(=O)C2O)cc1 (centres undefined)	0.4	1.2
C[C@H](CO)N1C[C@H](C)[C@H](CN(C)C(=O)Nc2ccccc2)Oc2c(NC(=O)NC3CCCCC3)cccc2C1=O	·	-1.8
C[C@@H]1CN([C@H](C)CO)C(=O)c2cc(NS(=O)(=O)c3cccs3)ccc2O[C@@H]1CN(C)Cc1ccc(Oc2ccccc2)cc1	0.9	-1.0
CC(=O)N1CN(Cc2ccccc2)Cc2c1sc1c2CCCC1	0.5	-0.3
COc1ccc(S(=O)(=O)Nc2ccc3c(c2)C(=O)N([C@H](C)CO)C[C@H](C)[C@H](CN(C)S(C)(=O)=O)O3)cc1	0.5	-2.7
O=C(O)CSCC(=O)N1CCCN(c2ccc(C(F)(F)F)cn2)CC1	0.6	-9.9
Cc1cc(C(=O)Nc2cccc3c2O[C@@H](CN(C)C(=O)NC2CCCCC2)[C@@H](C)CN([C@@H](C)CO)C3=O)n(C)n1	·	3.3
CCOc1ccccc1C1CC(=O)Nc2c1c(=O)n(C)c(=O)n2C (centres undefined)	·	1.3

Grouped by structure: the compounds so far with a cyano group.
SMILES	A1 inhib	BJeLR viab HTS
N#Cc1c(-c2cccs2)cc(-c2ccccc2)nc1OCC(=O)c1ccccc1	-0.3	-1.1
CCOc1ccc(-c2nc(C#N)c(N(C)C)o2)cc1	·	1.4

Going on with the list.
SMILES	A1 inhib	BJeLR viab HTS
O=C(NCCC1=CCCCC1)c1cc2c(s1)-c1ccccc1SC2	·	1.6
C[C@@H]1CN([C@H](C)CO)C(=O)c2cccc(NC(=O)Nc3ccc4c(c3)OCO4)c2O[C@@H]1CN(C)S(=O)(=O)c1ccc(F)cc1	·	-7.7
COc1ccc(NC(=O)N(C)C[C@@H]2Oc3ccc(NC(=O)CCC(F)(F)F)cc3C(=O)N([C@H](C)CO)C[C@H]2C)cc1	0.6	1.7
Cc1noc(C)c1NC(=O)N(C)C[C@H]1Oc2c(NC(=O)Nc3ccccc3)cccc2C(=O)N([C@@H](C)CO)C[C@H]1C	·	1.9
COC(=O)C1=C(C)N=C2SC(C#N)=C(N)N2C1c1cccs1 (centres undefined)	0.1	-1.7
C[C@H](CO)N1C[C@H](C)[C@@H](CN(C)Cc2ccc3c(c2)OCO3)Oc2c(NS(=O)(=O)c3ccc(Cl)cc3)cccc2C1=O	·	1.0
COC1=CC(=O)OC(CCc2ccc(OC)c(OC)c2)C1 (centres undefined)	0.2	0.6
COc1cc2c(cc1OC)C(=O)CC(C)(C)O2	0.0	-7.9
O=C(NCC1COc2ccccc2O1)Nc1csc2ccccc12 (centres undefined)	0.9	0.4
O=C(O)c1[nH]n(-c2ccccc2)c(=O)c1/C=C1\C=Nc2ccccc21	0.2	-1.4
COc1ccc(NC(=O)N(C)C[C@H]2Oc3ccc(NS(C)(=O)=O)cc3C(=O)N([C@@H](C)CO)C[C@H]2C)cc1	0.0	5.0
COc1ccc(CN(C)C[C@H]2Oc3ccc(NS(=O)(=O)c4cn(C)cn4)cc3C(=O)N([C@H](C)CO)C[C@@H]2C)cc1	0.0	-2.7

Looked up one by one from the entries so far (6):
SMILES	A1 inhib	BJeLR viab HTS
COc1ccc(CN(C)C[C@H]2Oc3ccc(NS(=O)(=O)c4cn(C)cn4)cc3C(=O)N([C@H](C)CO)C[C@@H]2C)cc1	0.0	-2.7
O=C(O)c1[nH]n(-c2ccccc2)c(=O)c1/C=C1\C=Nc2ccccc21	0.2	-1.4
O=C(NCC1COc2ccccc2O1)Nc1csc2ccccc12 (centres undefined)	0.9	0.4
C[C@@H]1CN([C@H](C)CO)C(=O)c2cccc(NC(=O)Nc3ccc4c(c3)OCO4)c2O[C@@H]1CN(C)S(=O)(=O)c1ccc(F)cc1	·	-7.7
COc1ccc(NC(=O)N(C)C[C@@H]2Oc3ccc(NC(=O)CCC(F)(F)F)cc3C(=O)N([C@H](C)CO)C[C@H]2C)cc1	0.6	1.7
COc1ccc(NC(=O)N(C)C[C@H]2Oc3ccc(NS(C)(=O)=O)cc3C(=O)N([C@@H](C)CO)C[C@H]2C)cc1	0.0	5.0

(cont.)
SMILES	A1 inhib	BJeLR viab HTS
CCCN(CCC)C(=O)Cn1ncc2c(=O)oc3ccc(C)cc3c21	·	-1.9
C[C@@H]1CN([C@@H](C)CO)C(=O)c2cc(N(C)C)ccc2O[C@@H]1CN(C)S(=O)(=O)c1ccc(Cl)cc1	-0.1	3.3
C[C@H]1CN([C@@H](C)CO)C(=O)c2cc(NC(=O)Nc3ccc(C(F)(F)F)cc3)ccc2O[C@H]1CN(C)Cc1ccc(Oc2ccccc2)cc1	0.1	-0.3
C[C@H](CO)N1C[C@H](C)[C@H](CN(C)Cc2ccccc2)Oc2ccc(NC(=O)Cc3cn(C)c4ccccc34)cc2C1=O	0.4	3.4
C[C@@H]1CN([C@@H](C)CO)C(=O)c2cc(NC(=O)Nc3ccccc3)ccc2O[C@@H]1CN(C)S(=O)(=O)c1cn(C)cn1	-0.3	2.8
CC(=O)Oc1ccccc1C(=O)Nc1ccc(C(N)=O)cc1	-7.0	10.5
C[C@H](CO)N1C[C@H](C)[C@H](CN(C)CC2CCCCC2)Oc2c(NC(=O)Nc3ccccc3)cccc2C1=O	·	1.6
COc1ccc(NC(=O)Nc2ccc3c(c2)C(=O)N([C@H](C)CO)C[C@@H](C)[C@H](CN(C)S(=O)(=O)c2ccc(C)cc2)O3)cc1	1.4	-2.8
COC(=O)c1cc(S(=O)(=O)N(C)C2CCCCC2)oc1C	0.9	1.8
COc1ccc(NC(=O)Nc2ccc(OC)c(OC)c2)cc1OC	-0.3	3.8
C[C@H]1CN([C@@H](C)CO)C(=O)c2cccc(NC(=O)C3CC3)c2O[C@H]1CN(C)S(=O)(=O)c1cn(C)cn1	·	-5.4
CCOC(=O)C(Cc1ccc(O)cc1)NC(C)=O (centres undefined)	-0.1	4.0
Cc1ccn(CN2CCN(Cn3ccc(C)n3)C2=S)n1	-0.2	3.4
C[C@@H]1CN([C@H](C)CO)C(=O)c2cccc(NC(=O)Nc3ccc(C(F)(F)F)cc3)c2O[C@H]1CN(C)C(=O)Nc1ccc(C(F)(F)F)cc1	·	-0.8
Cc1ccc(S(=O)(=O)N(C)C[C@H]2Oc3ccc(NC(=O)CCN4CCOCC4)cc3C(=O)N([C@H](C)CO)C[C@@H]2C)cc1	-0.4	-1.8
CC(C)NC(=O)Nc1cccc2c1O[C@@H](CN(C)S(=O)(=O)c1ccc(F)cc1)[C@@H](C)CN([C@H](C)CO)C2=O	·	7.6
CCCCn1c(SCC(=O)NCc2ccc(C)cc2)nc2ccc(N3CCOCC3)cc2c1=O	-0.3	-6.5
C[C@H](CO)N1C[C@H](C)[C@H](CN(C)Cc2ccncc2)Oc2ccc(NC(=O)Cc3cn(C)c4ccccc34)cc2C1=O	0.6	11.0
Cc1nc2ccccc2nc1N=C(N)NC(=O)c1ccccc1	-3.1	0.6
CC(C)(Oc1ccc(Br)cc1)C(=O)O	-0.1	-1.4
COc1ccc2c(ccn3cc4c(c(=O)n(C)c(=O)n4C)c23)c1	·	-1.2
COc1cc2cc(Oc3ccc4ccc(=O)oc4c3)c(=O)oc2cc1O	0.2	-4.4
O=C(Nc1csc2ccccc12)N1CCN(C(c2ccccc2)c2ccccc2)CC1	-0.4	13.2
C[C@H](CO)N1C[C@H](C)[C@@H](CN(C)C(=O)Nc2ccc3c(c2)OCO3)Oc2c(NC(=O)C3CCOCC3)cccc2C1=O	·	-3.5
O=C1Nc2ccccc2S/C1=C\C(=O)N1CCCC1	·	1.0
O=C(NCSCc1cccc(C(F)(F)F)c1)Nc1ccc(F)c(Cl)c1	0.7	-6.9
COC(=O)c1cn(NC(=O)c2cccc(OC)c2)c(=O)c2ccccc12	·	-6.6
C[C@@H]1CN([C@H](C)CO)C(=O)c2cccc(NC(=O)Nc3cccc4ccccc34)c2O[C@@H]1CN(C)Cc1ccccc1	·	-3.0
CCOC(=O)c1ccccc1NC(=O)Cn1c(=O)n(-c2cc(C)cc(C)c2)c(=O)c2sccc21	·	-3.0
Cc1c(C(=O)NC2CCCCC2)c(C)n2cnn(CC(=O)NCCCN3CC(C)CC(C)C3)c(=O)c12 (centres undefined)	-0.9	-4.4
Nc1nc(SCc2nc(-c3ccccc3)no2)n[nH]1	-1.5	1.5
COCC(=O)N1N=C(c2cccc(NS(C)(=O)=O)c2)CC1c1ccccc1C (centres undefined)	·	-0.2
